Bioassay records deposited in PubChem BioAssay by several laboratories.
A1 inh – inhibitors of the anti-apoptotic protein A1, read as caspase activation; MEF A1-2A-BIM cells, Caspase-Glo 3/7 luminescence, 3 h; percent of clofoctol response, vehicle zero; caspase activation, % (concentration not given with the values); actives 0.066% (n = 330,000); AID 2462;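 active means over half of replicate activation scores above 10%, or exactly half above 10 with the replicate mean above 10; inconclusive means replicate mean below 10 yet half the replicates above 10; inactive means over half of replicates below 10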;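 further: wells of about 30 µL received 50 nL stock; many hits fall short of the cut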
LANA-H2A inh – blocks KSHV LANA binding to histone H2A/H2B; Q9QR71; cell-free LANA-H2A/H2B peptide, fluorescence polarization; inhibition, % (test concentration not listed); actives 0.6% (n = 320,000); AID 2629; in the data active means inhibition mostly above about 10%, no sharp cut-off; inactive means mostly below about 6.7%;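 further: stock transfer was 7.5 nL into about 10 µL; 0% = median of vehicle wells and 100% = median of positive control wells; one replicate is shown; the record names a cut of 25% in any replicate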
Ecoli rRNA inh – inhibitors of bacterial rRNA selective over humanized ribosomes | E. coli WT GFP vs humanized-ribosome RFP mutants, fluorescence, 24 h; hits give low values; DMSO median 0, no signal -100 | GFP signal change (wild-type ribosome), % (test concentration not listed) | actives 1.6% (n = 350,000);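 active means significant combined selectivity score with lowered wild-type GFP, culture density cut under 30%, mutant RFP and density less affected; inactive means any of these conditions unmet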; further: one replicate is shown; some compounds called inactive have numbers as strong as hits
Calb FLC – affects C. albicans growth with fluconazole. growth inhibition, % (no concentration beside the values). C. albicans CaCi-2 (fluconazole-resistant clinical isolate) + fluconazole, Alamar Blue growth, 48 h. AID 1979. actives 0.57% (n = 300,000);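 active means most replicates above 75%; inconclusive means exactly half above 75%; inactive means most below 75%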;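 further: all wells also contain fluconazole at 8 µg/ml as a sub-toxic cotreatment; 0% = median of DMSO wells and 100% = median of geldanamycin control wells; wells of about 8 µL received 7.5 nL stock; the first replicate is given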
Beta cell apopt – beta cell apoptosis inhibition. INS-1E cytokine-induced death, ATP luminescence, 48 h; percent of positive-control rescue, neutral wells zero. actives 0.8% (n = 300,000). protection from apoptosis, % (test concentration not listed);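 active means all replicates at 75% or more, or half of them and the mean; inconclusive means half reach 75% but not the mean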;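 further: 0% = cytokine-treated negative control wells and 100% = positive control rescue; higher means more ATP so stronger rescue from cytokine killing; wells of about 40 µL received 100 nL stock; the first replicate is given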
T cruzi inh – blocks replication of Trypanosoma cruzi | inhibition, % (test concentration not listed) | actives 1.4% (n = 300,000) | T. cruzi beta-gal in NIH3T3, luminescence, 90 h;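 active means mean inhibition across valid replicates above about 55%, limit read from the data; inconclusive means mean below that limit but half or more replicates reach it; inactive means mean below it, under half of replicates reach it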;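 further: signal also drops with host cell toxicity which is not excluded here; 0% = plate median of DMSO wells and 100% = zero luminescence signal; higher percent means less beta-gal luminescence so fewer parasites; stock transfer was 50 nL into about 50 µL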
ALR H2O2 inh – inhibitors of human sulfhydryl oxidase ALR | inhibition, % (concentration not given with the values) | actives 3.8% (n = 290,000) | purified ALR, DTT oxidation, H2O2 HRP-luminol luminescence;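 active means mean and each replicate at 75% or more; inconclusive means only one of the two met; inactive means neither met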;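 further: stock transfer was 7.5 nL into about 7.5 µL; 0% = neutral wells and 100% = wells with inactivated enzyme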
Target sequence (P55789 whole entry, looked up): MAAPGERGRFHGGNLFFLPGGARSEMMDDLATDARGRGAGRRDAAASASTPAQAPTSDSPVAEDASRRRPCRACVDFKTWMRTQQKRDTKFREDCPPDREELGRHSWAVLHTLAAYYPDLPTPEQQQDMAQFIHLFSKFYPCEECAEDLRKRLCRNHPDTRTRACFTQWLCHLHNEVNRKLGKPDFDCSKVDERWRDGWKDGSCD
B2AR ag – agonists of human beta-2 adrenergic receptor inducing internalization; AID 504454; Am2.2-beta2AR cells, FAP receptor internalization, flow cytometry; reference of the scale not given here; actives 0.43% (n = 340,000); response, % (no concentration beside the values);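 active means response above a set limit, near 3 SD of response in nonfluorescent compounds, cut at about 42% in these data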;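 further: stock transfer was 100 nL into about 11 µL; a reference agonist was the positive control; negative values mostly stem from fluorescent compounds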
Target sequence (P07550 whole entry, looked up): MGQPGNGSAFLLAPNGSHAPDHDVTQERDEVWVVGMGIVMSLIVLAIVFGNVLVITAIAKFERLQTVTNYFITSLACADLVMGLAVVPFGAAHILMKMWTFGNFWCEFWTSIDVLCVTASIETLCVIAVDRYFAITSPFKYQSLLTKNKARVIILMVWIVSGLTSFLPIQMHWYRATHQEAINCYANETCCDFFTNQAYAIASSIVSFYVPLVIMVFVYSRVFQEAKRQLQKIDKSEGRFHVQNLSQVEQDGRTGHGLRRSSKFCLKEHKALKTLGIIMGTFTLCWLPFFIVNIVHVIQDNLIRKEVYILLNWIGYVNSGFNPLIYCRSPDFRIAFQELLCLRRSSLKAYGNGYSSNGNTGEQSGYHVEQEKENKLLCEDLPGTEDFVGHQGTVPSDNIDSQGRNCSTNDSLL
Ecoli rRNA inh OD600 – recorded beside Ecoli rRNA inh, whose call it bears; OD600 change, %; measured here: OD600 growth;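 optical density of the mix in the first replicate; 0 = DMSO median and -100 = no signal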
Ecoli rRNA inh RFP – also measured in Ecoli rRNA inh; calls as there; RFP signal change, %; measured here: RFP humanized mutant strains;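 first replicate; 0 = DMSO median and -100 = no signal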
Numbers without * were called inactive; u = inconclusive; x = not tested or not shown.

Sample of the layout:
SMILES	A1 inh	LANA-H2A inh	Ecoli rRNA inh	Ecoli rRNA inh OD600	Ecoli rRNA inh RFP	Calb FLC	Beta cell apopt	T cruzi inh	ALR H2O2 inh	B2AR ag
CCOC(=O)/C(C#N)=N/Nc1ccccc1OC	-1.2	-4.5	7	6	11	14	-4	0	-2	4
Cc1ccc(/C=C(/NC(=O)c2ccccc2)C(=O)NCCc2c[nH]c3ccccc23)o1	-0.3	1.7	x	x	x	13	-7	5	1	-6
Cc1cc2c(cc1S(=O)(=O)CCC(=O)NC1CCC(C)CC1)OCC(=O)N2 (stereo unspecified)	0.1	-8.9	-2	9	-1.0	-9	-2	-1	x	-1
Cc1nc2ccccc2c(=O)n1-c1cccc(NC(=O)c2cccs2)c1	1.0	x	-5	-7	-1.2	0	7	2	x	-4
COC(=O)c1ccc(Oc2ccc3nncn3n2)cc1	-0.2	4.5	x	x	x	-5	-2	-21	x	2
CC(=O)Nc1ccc(S(=O)(=O)N(C)CC(=O)OCC(=O)Nc2ccc3c(c2)OCO3)cc1	-0.2	-4.2	x	x	x	-11	-6	3	-2	-1
CN(C(=O)CSc1nc2ccc(Cl)cc2[nH]1)C1CCS(=O)(=O)C1 (stereo unspecified)	-0.4	1.0	1	5	1.1	x	-1	x	x	0
Cc1c(C)n(C(=O)CSc2nccn2C)c2ccccc12	0.5	-4.2	x	x	x	2	-7	8	5	-2
C(=N\N1CCN(C(c2ccccc2)c2ccccc2)CC1)/c1ccc2c(c1)OCO2	0.8	-0.8	9	4	-0.5	-28	10	30	x	4
CCC(=O)Nc1cc(C(C)C)c(O)cc1C	0.6	0.0	x	x	x	-3	-6	-18	58	11
O=C(Cn1[nH]c(=O)c2ccccc2c1=O)OCC(=O)N1CCCc2ccccc21	0.5	-0.1	x	x	x	-7	-13	-12	-7	5
CSC1=NCCN1C(=O)c1ccc(Br)o1	-1.1	-0.1	4	4	0.0	-8	-1	-4	3	8
COCCCN(C(=S)Nc1ccc(C)cc1Cl)C(C)c1ccncc1 (stereo unspecified)	-1.0	0.3	x	x	x	-26	0	-16	-6	-4
O=C1c2ccccc2S(=O)(=O)N1CCS(=O)(=O)c1ccc(F)cc1	1.0	7.2	4	9	0.8	9	x	-11	x	-1

This part in full, repeating the preview:
SMILES	A1 inh	LANA-H2A inh	Ecoli rRNA inh	Ecoli rRNA inh OD600	Ecoli rRNA inh RFP	Calb FLC	Beta cell apopt	T cruzi inh	ALR H2O2 inh	B2AR ag
CCOC(=O)/C(C#N)=N/Nc1ccccc1OC	-1.2	-4.5	7	6	11	14	-4	0	-2	4
Cc1ccc(/C=C(/NC(=O)c2ccccc2)C(=O)NCCc2c[nH]c3ccccc23)o1	-0.3	1.7	x	x	x	13	-7	5	1	-6
Cc1cc2c(cc1S(=O)(=O)CCC(=O)NC1CCC(C)CC1)OCC(=O)N2 (stereo unspecified)	0.1	-8.9	-2	9	-1.0	-9	-2	-1	x	-1
Cc1nc2ccccc2c(=O)n1-c1cccc(NC(=O)c2cccs2)c1	1.0	x	-5	-7	-1.2	0	7	2	x	-4
COC(=O)c1ccc(Oc2ccc3nncn3n2)cc1	-0.2	4.5	x	x	x	-5	-2	-21	x	2
CC(=O)Nc1ccc(S(=O)(=O)N(C)CC(=O)OCC(=O)Nc2ccc3c(c2)OCO3)cc1	-0.2	-4.2	x	x	x	-11	-6	3	-2	-1
CN(C(=O)CSc1nc2ccc(Cl)cc2[nH]1)C1CCS(=O)(=O)C1 (stereo unspecified)	-0.4	1.0	1	5	1.1	x	-1	x	x	0
Cc1c(C)n(C(=O)CSc2nccn2C)c2ccccc12	0.5	-4.2	x	x	x	2	-7	8	5	-2
C(=N\N1CCN(C(c2ccccc2)c2ccccc2)CC1)/c1ccc2c(c1)OCO2	0.8	-0.8	9	4	-0.5	-28	10	30	x	4
CCC(=O)Nc1cc(C(C)C)c(O)cc1C	0.6	0.0	x	x	x	-3	-6	-18	58	11
O=C(Cn1[nH]c(=O)c2ccccc2c1=O)OCC(=O)N1CCCc2ccccc21	0.5	-0.1	x	x	x	-7	-13	-12	-7	5
CSC1=NCCN1C(=O)c1ccc(Br)o1	-1.1	-0.1	4	4	0.0	-8	-1	-4	3	8
COCCCN(C(=S)Nc1ccc(C)cc1Cl)C(C)c1ccncc1 (stereo unspecified)	-1.0	0.3	x	x	x	-26	0	-16	-6	-4
O=C1c2ccccc2S(=O)(=O)N1CCS(=O)(=O)c1ccc(F)cc1	1.0	7.2	4	9	0.8	9	x	-11	x	-1
C/C(=N\N=C(/N)SC1CC(=O)N(c2ccc(Cl)c(Cl)c2)C1=O)c1cccs1 (stereo unspecified)	-0.9	0.4	-39*	-18*	9.0*	u	0	-17	x	-4
CN(CCCN1CCOCC1)C(=O)c1cc(COc2ccc(F)cc2F)on1	0.6	-1.0	3	6	-2.6	-1	-1	6	-5	-5
Cc1cc(C)n(CCNS(=O)(=O)c2ccccc2)n1	0.1	-1.9	8	6	3.0	-7	-1	-7	0	-2
C=CCN(CC=C)CCCOc1ccccc1C(=O)OC	1.3	2.9	0	2	-1.1	-13	-9	-3	-3	3
C/C(Cc1ccccc1)=N\NC(=O)CNC(=O)COc1ccccc1	0.4	-7.1	11	2	-2.7	5	-8	12	8	-5
CC(C)CNc1c(N)c(=O)oc2ccccc12	0.5	-6.6	x	x	x	3	2	-7	99*	12
O=S(=O)(c1cccc(F)c1)N1CCC(CO)(Cc2cccc(F)c2)CC1	-0.3	0.5	-30	-29	-0.7	-2	4	-19	-20	2
CCN(CC)c1ccc(NC(=O)Cn2c(C(C)NC(=O)c3ccccc3)nc3ccccc32)cc1 (stereo unspecified)	-0.8	1.6	9	3	-2.5	u	6	-4	-12	-1
CC1CC(C)CN(CCCNC(=O)CN2C(=O)COc3ccc(S(=O)(=O)N4CCOCC4)cc32)C1 (stereo unspecified)	1.0	-0.6	9	17	-1.5	-2	-9	1	-1	9
COc1ccc(N(C)S(=O)(=O)c2cccc(C(=O)OCC(=O)N(C)c3ccccc3)c2)cc1	-1.3	2.1	x	x	x	x	-1	x	-3	0
CCOC(=O)C1=C(C)NC(C)=C(C(=O)OCC)C1C(=O)OCC(=O)N1CCc2ccccc2C1	0.6	0.0	x	x	x	39	2	4	-5	3
O=C(CC1c2ccccc2Oc2ccccc21)NCc1ccco1	1.5	-1.4	x	x	x	-1	5	7	0	0
Cc1cc(=O)n2c(C(=O)Nc3ccc(C(=O)OC(C)C)cc3)c(C(=O)Nc3ccccc3)sc2n1	0.6	2.8	13	15	2.6	22	28	15	0	3
O=C(Oc1c(-c2ccccc2Cl)oc2ccccc2c1=O)c1ccc(Cl)cc1	-0.2	-4.1	17	1	-4.6	10	0	2	-4	16
CCOC(=O)/C(C#N)=C1\CCCN1CC(N)=S	-0.8	-5.2	12	10	-0.8	-10	2	-19	4	-2
C#CCNC(=O)C1=C[C@H](C2CCCCC2)[C@@H](CCCO)[C@H](OCC)O1	0.6	-0.5	15	5	13	-6	5	-5	2	3
CC1CN(Cc2ccccc2Cl)CC(C)O1 (stereo unspecified)	-0.2	4.7	6	7	0.0	-13	6	0	0	0
CC(=O)c1ccc(N2CCN(c3ncccn3)CC2)c([N+](=O)[O-])c1	0.6	1.1	-7	-12	0.5	29	-1	-5	x	-2
Cn1c(CSc2nc3ccccc3s2)nnc1SCC(=O)NCCCN1CCOCC1	-0.3	0.7	x	x	x	1	-10	-10	-5	15
Clc1cccc2sc(N3CCCC3)nc12	-2.0	-2.2	x	x	x	-1	-5	-4	-1	2
COc1cc(C)nc(NC(=O)NC(=O)c2ccc(C(F)(F)F)cc2)n1	1.8	7.9	14	7	-5.0	6	0	-11	-3	-18
Fc1ccc(-c2nnsc2Sc2ccccn2)cc1	1.3	11	8	18	-3.1	-21	-2	-6	3	-1
CCCCNS(=O)(=O)c1ccc(NC(=O)C2c3ccccc3Oc3ccccc32)cc1	1.1	-0.4	x	x	x	-17	8	8	x	-3
Cc1cccc(NC(=O)c2ccccc2OCC(=O)N2CCCC2)c1C	0.5	3.9	x	x	x	15	3	-1	x	x
CN1CCN(C2=NC3(CCCC3)C(C#N)C(=O)N2)CC1 (stereo unspecified)	0.0	-3.4	x	x	x	-3	-4	-5	15	-4
Cc1ccc2nc(C)c3c(c2c1)COC3	-0.2	-4.2	x	x	x	39	4	20	-3	-2
CCC(=O)Nc1c(-c2ccccc2Cl)c(=O)c2ccccc2n1CC	-0.2	-0.6	-2	7	4.2	-10	-2	5	1	7
O=[N+]([O-])c1ccc(Oc2c(F)c(F)nc(N3CCCC3)c2F)cc1	-0.2	1.0	x	x	x	-3	2	-5	-1	9
CC(C)(C)NC(=O)NC(=O)CSc1n[nH]c(-c2ccccc2Br)n1	1.0	2.5	-4	2	-5.2	7	-5	4	96*	3
Cc1cc(C)n2[nH]c(=O)c(N=Nc3ccc(S(N)(=O)=O)cc3)c2n1	0.8	-5.7	5	6	4.2	-8	1	8	-3	8
COc1ccc(NC(=O)CSc2n[nH]c(C)c2[N+](=O)[O-])cc1	1.5	-5.2	-4	-2	-1.6	1	10	-4	x	-1
O=C(CCC(=O)c1ccc(F)cc1)NC1CCCN(Cc2ccccc2F)C1 (stereo unspecified)	0.1	-0.1	2	2	-0.3	6	-4	13	-5	1
Cn1c(C(=O)OCC(=O)NCc2ccco2)cc2sccc21	-0.5	2.4	2	-6	3.2	-5	-1	-9	1	-34
COC(=O)N/N=C1\CCCc2ccccc21	0.9	-1.9	x	x	x	10	-11	8	-18	-3
O=c1[nH]c(CN2CCN(S(=O)(=O)c3ccc(Cl)cc3)CC2)nc2cc(Cl)ccc12	0.3	9.5	x	x	x	22	-2	10	-1	3
COC(=O)/C(C#N)=C/c1c(N2CCN(c3ccccc3)CC2)nc2c(C)cccn2c1=O	x	x	3	-5	17	14	x	22	x	11
Cc1ccc(-c2cnc3ccccc3n2)cc1C	-14	2.1	1	10	-0.9	-11	0	-5	40	-10
CC1=C(C(=O)OCC2CCCCC2)C(c2ccccc2F)NC(=O)N1 (stereo unspecified)	0.0	0.0	2	3	4.4	2	x	-11	11	1
Cc1ccc(Nc2cc(C(=O)NCCCN3CCOCC3)c3ccccc3n2)cc1C	-0.2	3.0	-22*	-6.8*	3.5*	1	x	10	57	21
Cc1cc(C)n(CCNC(=O)c2cc(COc3ccc4ncccc4c3)on2)n1	0.4	-1.4	-30	-27	-7.2	9	11	-14	x	0
COc1ccccc1N1CCN(C(=O)CSc2nc3ccccc3nc2N2CCCCC2)CC1	-0.1	-3.3	0	-6	24	7	10	29	5	9

The list is partial; the hit share may differ from the screen's.
